# Mtb hypoxia rep – PubChem AID 1159583; fluorescence inhibition, % (test concentration not listed); M. tuberculosis hypoxia-regulated fluorescent reporter, fluorescence; 300,000 compounds, 0.1% hits;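 active = 35 to 45% if threefold the growth effect, above 45% if 1.5-fold the growth effect; inactive = the rest, general growth blockers included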;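 also: wells of about 50 µL received 100 nL stock; 0% = vehicle wells and 100% = reference inhibitor wells; whole bacteria with a GFP reporter of the hypoxia response; strong numbers were not always called active; many hits fall short of the cut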
# BJeLR lethal – MLPCN primary cell-based screen for lethality selective to Ras in HRASV12 cells | inhibition, % (test concentration not listed) | BJeLR (HRASV12) viability, CellTiter-Glo ATP luminescence, 48 h; reference of the scale not given here | 300,000 compounds, 0.17% hits;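 active = replicate mean above 50%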;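 also: 50 nL library stock added to about 25 µL; numbers are from one replicate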
# RN4220 kill – growth inhibition of S. aureus RN4220, primary screen, OD600 | 16 h | inhibition, % (test concentration not listed) | 330,000 compounds, 0.33% hits | AID 1259311, 2017;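 active = z-score of -3 or lower and OD600 up to 0.18 on both plates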;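 also: plate controls were untreated cells for no effect and reference antibiotic for full effect; stock transfer was 100 nL into about 80 µL; one replicate is shown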
# PrP UTR inh – inhibition of PrP 5' UTR reporter expression | cell-based PrP 5' UTR mRNA reporter, plate reader | inhibition, % (no concentration beside the values) | 340,000 compounds, 0.35% hits | AID 488862, 2010;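 active = every replicate at 50% or more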;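 also: 0 = median of the neutral control wells; tested in H4 reporter cells; numbers are from one replicate; inactives centre near -14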
# ugtP null kill – growth inhibition of ugtP-null S. aureus, primary screen, RN4220 ugtP deletion, OD600 | 16 h; some inactives read as strong as hits | growth inhibition, % (concentration not given with the values) | 330,000 compounds, 0.54% hits | AID 1259309, 2017;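 active = z-score under -3 and OD600 up to 0.15 on both plates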;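 also: plate controls were untreated wells for no effect and antibiotic for full effect; wells of about 80 µL received 100 nL stock; the first replicate is given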
# Bead autofluor – flagged as autofluorescent in microsphere protease counterscreen. compound autofluorescence counterscreen, microsphere flow cytometry; hits give high values. fluorescence intensity (concentration not given with the values). 360,000 compounds, 3.1% hits;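 active = at least 3 SD above the mean of all compounds, about 16000 in these data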;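 also: 100 nL of 1 mM stock went into each well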
# Mtb hypoxia rep growth – also measured in Mtb hypoxia rep; calls as there; growth inhibition, %; measured here: M. tuberculosis growth (absorbance);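 0% = vehicle and 100% = reference antibiotic; read after six days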
# * hit, by the source's call; . = no result given; & = joins results of further samples.
# The first 3 entries as a preview:
SMILES,Mtb hypoxia rep,Mtb hypoxia rep growth,BJeLR lethal,RN4220 kill,PrP UTR inh,ugtP null kill,Bead autofluor
COc1ccc([N+](=O)[O-])cc1NC(=O)CC(c1ccccc1)c1ccccc1,11,1,0,-2.8,-31,0,8369
COc1ccc(C(=O)NCc2ccc3c(c2)OCO3)cc1S(=O)(=O)N1CCCC1,-3,7,.,1.2,-19,0,8496
COc1cccc(N2CCN(C(=O)C3CCC(=O)N(C4CCCCCC4)C3)CC2)c1 (configuration not stated),5,1,-3,0.1,-16,15,5336

# The whole of this part, from the start:
SMILES,Mtb hypoxia rep,Mtb hypoxia rep growth,BJeLR lethal,RN4220 kill,PrP UTR inh,ugtP null kill,Bead autofluor
COc1ccc([N+](=O)[O-])cc1NC(=O)CC(c1ccccc1)c1ccccc1,11,1,0,-2.8,-31,0,8369
COc1ccc(C(=O)NCc2ccc3c(c2)OCO3)cc1S(=O)(=O)N1CCCC1,-3,7,.,1.2,-19,0,8496
COc1cccc(N2CCN(C(=O)C3CCC(=O)N(C4CCCCCC4)C3)CC2)c1 (configuration not stated),5,1,-3,0.1,-16,15,5336
Cc1cccc(C)c1NC(=O)CSc1nnnn1-c1ccc(C(=O)O)cc1,-6,8,-5,-1.2,-28,-1,3345
COc1ccccc1NC(=O)CSc1nc(O)cc(=O)n1C,13,3,-12,3.9,.,7,7859
O=Nc1c(-c2ccccc2)[nH]n(-c2ccccc2)c1=O,2,18,-11,0.9,-9,-6,3994
Cc1ccc(C(=O)OCC(=O)N2CCNC2=O)c(C)c1,2,-7,.,6.7,-46,14,.
O=[N+]([O-])c1cc([N+](=O)[O-])c(Oc2ccc(Br)cc2Br)cc1NN1CCCCC1,7,-8,-6,-4.8,-23,-5,2827
Cc1csc(NC(=O)CSc2sc3c(O)cc(=O)[nH]c3c2C#N)n1,1,7,-3,9.7,-31,2,5701
Cc1ccc(-n2c(C)cc(C(=O)CN3CCCCC3)c2C)cc1,5,11,8,2.0,-31,5,2514
Cc1cccc(C)c1OCCSc1nc2ccccc2n1CC(=O)O,-6,-1,3,2.4,2,4,.
CCC(C)c1ccc(Nc2ncccc2C#N)cc1 (configuration not stated),6,-2,-2,5.0,-73,-1,3374
C/C(=N\Nc1nnc(-c2ccccc2)c(-c2ccccc2)n1)c1cccc([N+](=O)[O-])c1,.,.,0,.,-9,.,11286
NC(=S)N/N=C1\CC(c2ccc3c(c2)OCCO3)Oc2ccc(F)cc21 (configuration not stated),.,.,6,.,-23,.,4251
O=C(NCC(=O)N1CCCC1)c1ccccc1F,6,2,-8,1.8,-34,9,3751
COC(=O)CSc1ncc(OC)c(OC)n1,17,14,-8,3.0,-30,2,11004
CN(C)c1cc[n+](CC(=O)c2cccs2)cc1,-9,-3,-2,0.4,-18,-3,3293
Cc1ccccc1NC(=O)COC(=O)CCC(=O)c1cccs1,-1,1,.,3.5,-14,2,5441
Cc1cc(C)nc(N2N=C(CSc3ccc(Cl)cc3)CC2=O)n1,13,7,-2,3.4,-10,6,3160
CN1C(=O)C2(OCCCO2)c2cc(Cl)ccc21,9,8,28,7.2,-9,9,3421
Cc1ccc(NC(=O)COC(=O)Cn2nc(C)c([N+](=O)[O-])c2C)c([N+](=O)[O-])c1,1,-1,9,-1.6,-10,9,2144
Cc1ccc(-c2nn(-c3ccccc3)cc2/C=C/C(=O)Nc2nccs2)cc1,3,5,3,-3.4,-8,-8,2456
COc1ccc2c(c1)C(=O)N1C3c4cc(C)ccc4OCC3C(c3ccccc3)[C@]1(C)C(=O)N2 (some centres not stated),0,-2,.,-5.5,.,-6,.
CCN(CC)S(=O)(=O)c1ccc(OC)c(NC(=O)C(C)Oc2ccc3c(C)cc(=O)oc3c2)c1 (configuration not stated),-6,3,-4,1.9,-7,-16,8663
COc1c(O)cccc1C(O)C1CCN(CCc2ccc(F)cc2)CC1 (configuration not stated),10&-4,5&-5,.,8.7&5.9,.,5&0,.
Cc1cccc(C)c1NC(=O)CSc1nnc(C)n1CC1CCCO1 (configuration not stated),12,8,7,0.2,-26,7,5019
O=C(Cc1ccc(F)cc1)N[C@@H]1c2ccccc2CC[C@@H]1OCc1ccccc1,-1,-1,.,2.2,12,7,3149
CC(C)C(NS(=O)(=O)c1ccccc1)C(=O)NC1CCCC1 (configuration not stated),3,11,-4,2.6,2,2,5211
Cc1cc(C)c(S(=O)(=O)NCCC2CCCN2C)c(C)c1 (configuration not stated),14,6,4,-1.9,-32,-3,8760
CC(C)=CCN1CCN(Cc2ccc(C)s2)CC1CCO (configuration not stated),6,-3,28,2.1,-13,1,4063
O=C(CN1C(=O)C(=Cc2cccc(Br)c2)SC1=S)Nc1cccnc1,6,0,.,0.2,.,-9,.
O=C(c1ccc(F)cc1)N(c1ccccn1)C1CCCCC1,2,6,10,5.5,-22,2,4425
CC(C)=CC(=O)OCC(=O)Nc1cc(C)cc(C)c1,16,12,-2,3.5,-10,7,4231
CC(NC(=O)c1nc[nH]c1C(=O)NC(Cc1ccccc1)C(=O)OC(C)(C)C)c1ccccc1 (configuration not stated),1&19,12&11,.,-0.5&-4.1,.,-5&1,.
COc1ccc(/C=C/C(=O)NCC(=O)N/N=C(\C)Cc2ccccc2)cc1,.,.,-8,.,-6,.,4690
O=C(/C=C/c1ccccc1)Nc1sc2c(c1C(=O)O)CCC2,8,5,-6,8.2,-8,6,4539
CN(C)c1ccc(CCc2ccc(N)cc2)cc1,14,4,-6,4.1,57*,-4,4575
Cc1cc(C)c2c(NC(=O)CCl)nn(C)c2n1,13,14,1,-1.1,-14,-8,3288
CCOc1ccccc1-n1c(SCC(=O)Nc2ccccc2C(=O)O)nc2ccccc2c1=O,5,2,-6,-0.7,-21,7,4471
O=C(CNC(=O)c1cccc(F)c1)NN=C/C=C/c1ccccc1,-9,2,.,-0.7,.,2,.
COc1cc(OC)cc(-c2cc3nc4c(c(N5CCN(c6ncccn6)CC5)n3n2)CCCC4)c1,-9,-8,-10,-3.1,-15,-3,12469
NNC(=O)CS(=O)(=O)CS(=O)(=O)CC(=O)NN,15,10,2,2.7,-25,1,6350
CCn1cc(C(=O)NC(=S)Nc2ccccc2[N+](=O)[O-])cn1,-3,5,3,3.7,-28,11,6115
O=C(NNC(=S)Nc1ccc(Cl)cc1)c1cccs1,12,12,4,3.4,-29,3,3738
COc1cccc(/C=C(\CC(=O)O)c2nc3ccccc3s2)c1,9,9,6,11,-21,-4,3448
COc1cc(SC)ccc1C(=O)Nc1cccc(C2OCCCO2)c1,18,2,7,6.0,-46,2,4217
Cc1cc(=O)[nH]c(N2CCN(c3ccc(Cl)cc3)CC2)n1,.,.,-17,.,-19,.,4756
CNC(=O)CNC(=O)Nc1ccc(C)cc1,12,11,2,2.4,-15,5,3423
CCc1ccc(C(CNc2nc(C(F)(F)F)nc3ccccc23)N(C)C)cc1 (configuration not stated),11,3,-7,0.8,-11,-11,3913
O=C1Nc2ccccc2C1C(C[N+](=O)[O-])c1ccccc1 (configuration not stated),14,8,-2,7.6,-10,9,3744
COc1ccc(CN2CCCC(C(=O)N3CCCCC3)C2)cc1 (configuration not stated),5,4,-3,1.5,-9,3,3733
Cc1cc(OC(=O)C2CC2)c([N+](=O)[O-])c(=O)[nH]1,9,2,-3,5.3,-13,6,2458
CCc1ccc(OCC(=O)Nc2ccc3oc(=O)ccc3c2)cc1,-5,2,2,1.9,-21,-12,6087
COc1ccc(C=NNC(=O)C(C)n2cnc3ccccc3c2=O)cc1OC (configuration not stated),7,7,.,8.3,.,2,.
COc1ccc(C(=O)N(CCN2CCOCC2)CC(=O)NC2CCCC2)cc1OC,1,3,5,3.2,-19,-1,10286
COC(=O)c1ccc(Oc2nc(NC(C)C)nc(N(C)C)n2)cc1,4,8,1,0.1,-36,-6,9262
CN1CCN(S(=O)(=O)c2ccc(NC(=O)c3ccc(Br)o3)cc2)CC1,-6,8,-2,2.5,-31,2,10328
O=C(NCc1ccc2c(c1)OCO2)Oc1ccccc1,4,12,-9,-9.6,-16,-3,4376
Cc1ccc(C2(C)NC(=O)N(CC(=O)NC(=O)NC(C)C)C2=O)cc1 (configuration not stated),5,3,1,3.9,-9,-2,6038
COc1cccc(C(=O)Nc2cccc(-c3ccc(N4CCOCC4)nn3)c2)c1OC,3,0,-2,1.1,-41,14,.

# Later entries.
SMILES,Mtb hypoxia rep,Mtb hypoxia rep growth,BJeLR lethal,RN4220 kill,PrP UTR inh,ugtP null kill,Bead autofluor
CS(=O)(=O)c1ccc(Cl)c(NC(=O)CN2CCN(S(=O)(=O)/C=C/c3ccccc3)CC2)c1,22,44,.,1.3,-5,-2,3738
O=C(C1CCCN(S(=O)(=O)c2cccc3cccnc23)C1)N1CCN(c2ccccc2F)CC1 (configuration not stated),.,.,-9,4.4,-17,4,4370
CCNC(=S)N/N=C/c1ccc(C#N)cc1,.,.,3,.,-17,.,4344
Cc1cccc(NC(=O)CC2NC3CCCCC3NC2=O)c1 (configuration not stated),7,6,-7,2.6,-23,9,3740
C[C@H](NC(=O)c1nc[nH]c1C(=O)N[C@@H](Cc1ccccc1)C(=O)OCc1ccccc1)C(=O)OCc1ccccc1,.,.,-2,.,-20,.,4291
Cc1ccc(NC(=O)C(C)c2ccc(-c3ccccc3)c(F)c2)c(C)c1 (configuration not stated),7,2,1,-3.3,-9,2,2476
CC(=O)Nc1ccc(Nc2ccc(S(=O)(=O)C(F)(F)F)cc2[N+](=O)[O-])cc1,9,5,-7,5.8,-10,14,2445
O=C(Cn1nnc(-c2cccs2)n1)N1c2ccccc2Sc2ccc(C(F)(F)F)cc21,4,3,1,-1.2,-19,-3,4131
COc1c(O)ccc(/C=N/NC(=O)c2ccc3c(c2)OCCO3)c1[N+](=O)[O-],.,.,-7,.,-73,.,5474
Cc1ccc2c(c1)S/C(=C/c1ccc[n+](CCO)c1)N2C,3,10,1,5.2,-11,5,4263
COc1ccc(C(=O)CCC(=O)N2CCN(c3cccc(Cl)c3)CC2)cc1,.,.,-7,1.5,-19,5,5947
CC1(C)Cc2c(cnn2-c2ccc(F)cc2)C(NC(=O)Cn2cncn2)C1 (configuration not stated),-1,0,-3,0.3,-11,3,6174

# No new results follow: 5 of the compounds above.
SMILES,Mtb hypoxia rep,Mtb hypoxia rep growth,BJeLR lethal,RN4220 kill,PrP UTR inh,ugtP null kill,Bead autofluor
O=C(Cn1nnc(-c2cccs2)n1)N1c2ccccc2Sc2ccc(C(F)(F)F)cc21,4,3,1,-1.2,-19,-3,4131
COc1c(O)ccc(/C=N/NC(=O)c2ccc3c(c2)OCCO3)c1[N+](=O)[O-],.,.,-7,.,-73,.,5474
Cc1ccc2c(c1)S/C(=C/c1ccc[n+](CCO)c1)N2C,3,10,1,5.2,-11,5,4263
COc1ccc(C(=O)CCC(=O)N2CCN(c3cccc(Cl)c3)CC2)cc1,.,.,-7,1.5,-19,5,5947
CC1(C)Cc2c(cnn2-c2ccc(F)cc2)C(NC(=O)Cn2cncn2)C1 (configuration not stated),-1,0,-3,0.3,-11,3,6174

# Next results follow.
SMILES,Mtb hypoxia rep,Mtb hypoxia rep growth,BJeLR lethal,RN4220 kill,PrP UTR inh,ugtP null kill,Bead autofluor
c1ccc(OCc2nn3c(-c4cccnc4)nnc3s2)cc1,12,14,2,4.9,-13,4,8666
Cc1cc(C(=O)NNC(=O)Nc2ccc(Cl)cc2)no1,4,6,-3,1.0,-27,8,4995
CC(C)COc1ccccc1C(=O)NC(CO)C(=O)O (configuration not stated),-2,24,-5,3.0,-11,-4,10020
COC(=O)COc1cc2ccccc2cc1C(=O)Nc1ccccc1,-1,-2,4,1.4,-19,-5,2061
S=C(NCc1ccc(Cl)cc1)Nc1ccccc1Cl,16,4,14,3.0,-1,-21,2210
CNC(=O)c1c(NC(=O)C(C)C)sc2c1CCC2,15,6,-1,2.6,-7,7,3628
CN(C(=O)COC(=O)c1n[nH]c2ccccc12)c1ccccc1,-16,-2,-3,0.8,1,7,3280
CCC/C=C1/CCCOC(C(=O)NCc2ccc(S(C)(=O)=O)cc2)(C(F)(F)F)C1 (configuration not stated),.,.,-4,.,-13,.,3719
O=C(OCn1nnc2ccccc2c1=O)c1ccco1,3,11,3,-6.6,-18,-5,4431
COc1ccc(-c2cc3ccc(F)cc3cn2)cc1,12,7,.,12,-28,12,3617
COCCNC(=O)CN1C(=O)NC2(CCCc3cc(OC)ccc32)C1=O (configuration not stated),3,6,-2,1.2,-13,4,4147

# Compound activity as filed in PubChem BioAssay.
